Screens as filed in PubChem BioAssay.
Sfp PPTase inh: blocks B. subtilis Sfp PPTase activity; hit rate 3.5% among 310,000; Biochemical Sfp PPTase activity, qHTS; AID 1490; Potency, µM, for the others: max response, negative = inhibition, usual class: inhibitors; Q9F4F7; active = well fitted inhibition curve with a large enough effect; inconclusive = small, poorly fitted or top-dose-only effect, or another doubt; inactive = no such curve, though single readings can be large or run the other way;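 note: the enzyme is Sfp with the accession as filed and its product quenches rhodamine fluorescence; potency is the fitted concentration of half-maximal effect; 0% = enzyme reaction without inhibitor and -100% = no enzyme wells; top concentration of the series not given in the record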
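With Hepes-Na pH 7.6 buffer containing 10 mM MgCl2, Sfp (15 nM) modified BHQ-2-YbbR (12.5 uM) using rhodamine-CoA (5 uM). Two reads 30 minutes apart at 525/598 nm yielded each well's rate.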
PINK1 expr mod: modulators of PINK1 expression; PINK1 immunofluorescence, high-content cytometry, 24 h; Potency, µM (doses to about 76.6 µM), for inactives: top-dose activation (PINK1 increase), usual class: activators; hit rate 0.2% among 410,000; active = well fitted activation curve with a large enough effect; inconclusive = small, poorly fitted or top-dose-only effect; inactive = flat fitted curve, though single readings scatter; cell line not stated here;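 note: potency is the fitted concentration of half-maximal effect; % of control where 0% means no effect; nearly all actives have a fitted effect of over 65% in size; a mitochondrial uncoupler was the plate control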
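A stable cell line was treated with compounds at 5 concentrations for 24 hours, with CCCP as control. PINK1 levels and mitochondrial localization were measured by immunofluorescence with mitochondrial, cell and nuclear markers after fixation, read by laser-scanning cytometry.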
Menin-MLL FL inh: menin-MLL binding inhibition, fluorescein peptide; Fluorescence polarization, fluorescein-MLL peptide displacement from menin; FP activity change, % at 61.4 µM; 290,000 tested, under 10 active; AID 1766; inconclusive = falling polarisation curve, or a change in total fluorescence; inactive = total fluorescence flat and polarisation flat or rising; no compound was filed as active; the % refers to the polarisation; negative = inhibition;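 note: % of control where 0% means no effect; inhibitors lower the polarisation; unlabelled MLL peptide was the positive control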
gsp antagonist: gsp mutant antagonism. Potency, µM (series often up to 76.9 µM), for the others: at the top dose activity change, negative = inhibition, usual class: inhibitors. hit rate 0.4% among 340,000. gsp-mutant cells, cAMP HTRF, 30 min; control for the full effect not named in the record; active = falling curve of any shape with a large fitted effect; inconclusive = falling curve, mostly with a smaller effect; inactive = flat or rising curve; cell line not stated here;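 note: intracellular cAMP measured with PDE inhibitor Ro 20-1724 present during compound exposure; potency is the fitted concentration of half-maximal effect; % is set by controls: 0 for no effect and ±100 for the full control effect; nearly all actives have a fitted effect of over 65% in size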
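HTRF cAMP measurement after 30 min RT detection following 30 min, 37C compound treatment alongside […] (added as 300 uM solution) in G418-selected cells seeded at 2000/well and grown 16–24 h.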
ClpP mod: qHTS Assay for Activators of ClpP. ATP-dependent Clp protease proteolytic subunit (Bacillus subtilis (strain 168)), P80244. purified B. subtilis ClpP, FRET peptide cleavage, 20 min. Potency, µM (series often up to 57.5 µM), without a hit: at the highest dose activity change, negative = active. hit rate 1.9% among 340,000. AID 651965, 2013; active = well fitted falling curve with a large enough effect; inconclusive = small, poorly fitted or top-dose-only effect; inactive = no such curve, though single readings can be large or run the other way; note: potency is the fitted concentration of half-maximal effect; the source files actives as falling curves though it sought activators and does not explain the sign; nearly all actives have a fitted effect of over 65% in size; many hits overshoot -100%
Target sequence (P80244 whole entry, looked up): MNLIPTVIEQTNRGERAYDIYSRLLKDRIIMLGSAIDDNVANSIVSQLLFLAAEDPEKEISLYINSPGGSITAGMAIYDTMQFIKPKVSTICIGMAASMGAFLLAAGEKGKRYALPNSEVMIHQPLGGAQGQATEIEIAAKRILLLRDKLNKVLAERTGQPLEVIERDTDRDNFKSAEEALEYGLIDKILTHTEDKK
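FRET quenching reversal measured ClpP activation: 10 microg/mL B. subtilis ClpP at pH 8 with the FRET-FV decapeptide, read at 430 nm after 320 nm excitation. The 20-min minus 0-min signal was scaled between DMSO/no-enzyme wells and ADEP (5.8 microM final).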
gsp ag: gsp mutant agonism. AID 624287. Potency, µM (titrated, usually from 76.9 µM), for inactives: top-dose activation (cAMP increase), hits mostly activators. hit rate 0.13% among 340,000. gsp mutant cells, cAMP HTRF, 30 min; control for the full effect not named in the record; active = well fitted activation curve with a large enough effect; inconclusive = small, poorly fitted or top-dose-only effect, or another doubt; inactive = no such curve, though single readings can be large or run the other way; cell line not stated here;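 note: phosphodiesterase inhibitor Ro 20-1724 added with compounds to block cAMP breakdown; potency is the fitted concentration of half-maximal effect; nearly all actives have a fitted effect of over 60% in size; about a fifth of the inactives were tested at one dose only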
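Cells stably selected in G418 were plated at 2000/well, grown 16-24 hr, then given compounds in DMSO with the PDE inhibitor […] (300 uM solution added) for 30 min at 37C; cAMP was read by HTRF.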
D2 ag: activates the human D2 dopamine receptor; P14416; DiscoveRx PathHunter D2 beta-arrestin, luminescence, 90 min; 100% = 57 uM dopamine signal; activation, % (concentration not given with the values); hit rate 0.084% among 360,000; in the data active = activation above about 40%; inconclusive = about 15% to 40%; inactive = below about 15%; note: compound concentration not given in the record; the text of the record calls up to 30% inactive
Target sequence (P14416 whole entry, looked up): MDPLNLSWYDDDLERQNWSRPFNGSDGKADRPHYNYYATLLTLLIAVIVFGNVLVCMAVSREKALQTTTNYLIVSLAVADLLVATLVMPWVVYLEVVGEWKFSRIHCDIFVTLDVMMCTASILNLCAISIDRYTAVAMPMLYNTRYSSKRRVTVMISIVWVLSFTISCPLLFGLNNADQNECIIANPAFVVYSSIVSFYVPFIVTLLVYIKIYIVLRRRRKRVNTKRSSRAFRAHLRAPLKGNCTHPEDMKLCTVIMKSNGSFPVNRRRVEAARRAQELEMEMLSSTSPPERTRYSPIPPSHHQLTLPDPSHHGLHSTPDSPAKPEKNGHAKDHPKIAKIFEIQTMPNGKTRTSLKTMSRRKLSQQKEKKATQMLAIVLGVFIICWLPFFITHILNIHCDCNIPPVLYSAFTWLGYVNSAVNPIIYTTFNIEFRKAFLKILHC
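DiscoveRx PathHunter D2 beta-arrestin cells (2,100/well) attached overnight, then compound-stimulated 90 min at 37 C in HBSS/10 mM HEPES/0.1% Tween-20 buffer; beta-galactosidase complementation read by luminescence after 1 h at ambient temperature. Dopamine 57 uM final (EC100) as control.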
Starred values were filed as active, the others as inactive; ? = inconclusive; / = not tested or not shown; [ ] = dose if it differs, or a comment. No enrichment for hits; about 5.1% have a hit in one of these screens.

SMILES	Sfp PPTase inh	PINK1 expr mod	Menin-MLL FL inh	gsp antagonist	ClpP mod	gsp ag	D2 ag
Cn1c(=O)c2c(ncn2CC(COCc2ccccc2)OCc2ccccc2)n(C)c1=O (stereo unspecified)	3.4%	0.3%	-0.2	-1.9%	-2.2%	-80.4%[inhibitor]	-3.8
CCCOc1ccc(N2C(=O)CC(N3CCN(S(=O)(=O)c4ccccc4)CC3)C2=O)cc1 (stereo unspecified)	10.1%	/	0.4	3.1%	2.5%	6.6%	-0.2
O=C(OCCNC(=O)c1cc2ccccc2oc1=O)c1cccnc1	16.7%	-0.6%	-1.6	0.1%	?	-22.9%	-3.3
CCN1C(=O)[C@H]2[C@@H](c3ccc(C(F)(F)F)cc3)N[C@]3(CCCN(Cc4cccn4C)C3=O)[C@H]2C1=O	/	1.6%	/	/	1.4%	2.1%	-8.9
COCCn1c(C)cc(C(=O)CSc2nc3ccccc3s2)c1C	-73.7%	15.6%	9.7	?	-17.4%	-38.0%[inhibitor]	-3.0
CCOC(=O)c1cc(-c2cc(OC)c(OC)c(OC)c2)nc2c1c(=O)[nH]c(=O)n2Cc1ccccc1	-21.7%	8.6%	-0.1	-7.2%	-0.1%	-10.8%	1.4
O=C(Cc1cccs1)NCc1cccnc1	5.5%	-0.7%	2.3	-1.0%	-1.5%	-1.4%	1.6
COc1ccccc1CNc1nc(NC(C)C)nc2cc(-c3ccccc3)sc12	/	?	/	/	?	/	-4.7
CCc1c(Cl)nc(N)nc1Nc1ccccc1C	/	4.6%	/	-28.6%	-3.1%	-45.5%[inhibitor]	-0.7
Fc1ccc2[nH]c3c(N4CCSCC4)ncnc3c2c1	-8.4%	4.7%	-0.9	28.2µM*	6.6%	-1.8%	?
NNC(=O)COc1ncn(-c2ccccc2)n1	-3.0%	-1.0%	-0.1	9.8%	-3.1%	20.0%	-0.4
CCCCN(C)C(=O)c1sc(=O)n(Cc2ccc(Cl)c(Cl)c2)c1C	/	-0.9%	/	/	0.7%	/	1.5
O=C(NC1CC2CCC(C1)N2Cc1nnnn1Cc1ccco1)NC12CC3CC(CC(C3)C1)C2 (stereo unspecified)	-13.3%	-4.1%	-1.0	-9.9%	0.3%	24.9%	-3.4
COc1ccc(NC(=O)COC(=O)[C@@H]2CCCN2C(=O)c2cccs2)c(OC)c1	21.8%	-1.1%	1.4	-4.9%	0.0%	20.8%	-0.9
CN(C)CCNc1nc2sc3c(c2c(=O)n1-c1ccccc1)CCCCC3	-1.8%	1.0%	1.5	9.7%	/	6.4%[15.4 µM]	-0.9
O=C(Nc1ccccc1)Nc1ccc(Nc2ccccc2)cc1	/	5.2%	/	1.6%	-8.2%	-13.5%	-2.4
NC(=S)N/N=C1\CC(c2ccc3c(c2)OCCCO3)Oc2ccc(F)cc21 (stereo unspecified)	1.4%	12.9%	3.7	-32.9%	/	-14.1%	1.7
Nc1[nH]c(=O)[nH]c(=O)c1N=Nc1ccc(C(=O)O)cc1	-12.9%	-0.2%	-5.6	-0.4%	-5.7%	?	-4.3
O=C(CCCNC(=O)c1ccc(Cl)cc1)Nc1ccc(Br)cc1	10.7%	5.0%	3.7	/	/	2.4%[15.4 µM]	2.5
CC(C)C[C@H](NC(=O)C1CC(=O)N(c2ccc3c(c2)OCO3)C1)C(=O)NC1CCCC1 (stereo partly specified)	12.3%	-1.3%	/	17.2%	-0.5%	3.3%	-5.3
N#Cc1ccc(-c2cccc3nccn23)cc1	/	1.0%	/	/	4.5%	/	-1.2
Cc1c(Br)c([N+](=O)[O-])nn1C(C)C(=O)Nc1c(C)n(C)n(-c2ccccc2)c1=O (stereo unspecified)	6.9%	/	-4.7	-0.2%	0.6%	-45.5%[inhibitor]	-2.2
COC(=O)c1ccc(CSc2ccc3nnc(-c4ccccn4)n3n2)o1	39.8µM*	3.5%	-0.5	7.2%	-3.9%	?	-3.5
O=C(CCN1CCCCC1)c1ccc2c(c1)OCCO2	-14.3%	/	4.3	2.1%	2.1%	-16.4%	-3.8
O=C(Cn1cncn1)N1CCN(c2ccc(F)cc2)CC1	21.5%	2.2%	2.3	12.2%	/	-16.4%	2.0
Cc1ccc(N(CCC#N)C(=O)COC(=O)c2ccccc2SCC(=O)N2CCCC2)cc1	/	1.4%	/	-1.4%	4.3%	8.9%[15.4 µM]	-5.5
Cc1ccc(Nc2nc(-c3cccnc3)cs2)cc1Cl	3.4%	6.2%	2.1	4.6%	/	-43.0%[inhibitor]	1.0
NC(=O)N1OCC2COc3ccc4ccccc4c3C21 (stereo unspecified)	5.2%	0.3%	2.2	2.3%	-1.0%	-30.0%[inhibitor]	-1.3
COCCNC(=O)CS(=O)Cc1nc(-c2ccccc2C)oc1C (stereo unspecified)	0.3%	-0.4%	-0.7	8.3%	-3.8%	-50.7%[inhibitor]	-5.5
COc1ccc(NS(=O)(=O)c2ccc(C)c(C(=O)N3CC(C)OC(C)C3)c2)cc1 (stereo unspecified)	/	-0.5%	/	-4.7%	/	-29.1%[15.4 µM]	-3.5
CC[C@]12c3[nH]c4ccc(OC)cc4c3CCN1C(=O)C(CC(=O)NCCCN(C)C)C[C@@H]2C(=O)N1CCN(C(=O)c2ccco2)CC1 (stereo partly specified)	/	2.1%	/	9.3%	-0.2%	/	-2.8
COC(=O)C(Cc1ccccc1)NC(=O)CCNC(=O)c1ccc(Br)cc1 (stereo unspecified)	7.5%	0.3%	-8.9	-6.7%	/	?	-1.3
CC1CN(c2nc(-c3ccccc3)nnc2-c2ccccc2)CC(C)O1 (stereo unspecified)	-3.8%	1.3%	0.0	-7.0%	-9.3%	0.4%	-0.8
COc1ccc(N2C(=O)C3CCCN3C2c2ccc(C)o2)cc1 (stereo unspecified)	8.9%	-2.1%	-0.2	50.1µM*	0.2%	-5.8%	-0.2
CCOc1ccc(C(=O)Nc2ccccc2C(=O)O)cc1	20.8%	-0.7%	-2.6	?	/	6.6%[15.4 µM]	0.9
C[C@H](CO)N1C[C@H](C)[C@@H](CN(C)S(=O)(=O)c2ccc(F)cc2)Oc2c(NC(=O)NC3CCCCC3)cccc2C1=O	/	8.0%	/	-19.7%	-2.2%	/	-4.7
COc1ccc(C(CNC(=O)COc2ccc(F)cc2Cl)N2CCOCC2)cc1 (stereo unspecified)	/	1.6%	/	2.9%	-2.2%	1.7%	-1.6
COc1ccc(CNC(=O)OCCN2CCN(Cc3ccccc3)CCC2=O)cc1	-4.5%	-0.8%	-0.7	1.7%	0.8%	-11.8%	-8.2
O=C(CSc1nnc(-c2ccc(O)cc2)n1Cc1ccccc1)NNC(=O)c1ccc(Br)cc1	17.6%	-0.4%	0.0	-15.9%	-0.2%	6.3%[15.4 µM]	-2.3
O=c1c2ccccc2nc(-c2ccccc2)n1/N=C/c1ccc([N+](=O)[O-])cc1	8.7%	11.4%	3.7	11.3%	1.5%	-23.0%	-3.0
CCn1c(NC(=O)c2ccccc2)c(-c2cccs2)c(=O)c2ccccc21	-1.7%	?	6.2	-8.6%	-3.9%	1.9%	-1.1
N#Cc1c(SCC(=O)Nc2ccc(Cl)cc2Cl)sc2c(O)cc(=O)[nH]c12	-15.9%	31.6µM*	13.9	9.6%	/	-10.5%[15.4 µM]	-4.8
Cc1cccc(Oc2nc(-c3ccccn3)nc3ccccc23)c1	70.8µM*	11.7%	-1.4	-0.3%	/	-1.7%[15.4 µM]	-8.0
CC(OC(=O)/C=C/c1ccco1)C(=O)NC1CCCCC1 (stereo unspecified)	/	2.2%	/	/	-1.8%	23.3%	-2.3
O=c1cc(-c2ccc(Cl)cc2)[nH]c2ccccc12	-11.8%	1.5%	4.6	-9.2%	-19.0%	8.6%	-3.0
O=C1[C@@H]2C(c3cccnc3)=NO[C@@H]2C(=O)N1c1ccc(Br)cc1	?	0.9%	-1.0	9.7%	0.3%	4.3%[15.4 µM]	-1.7
CC(C)Oc1ccc(C(CC(=O)O)c2ccc(F)cc2)cc1 (stereo unspecified)	23.6%	6.5%	-0.8	-15.5%	/	-5.1%[15.4 µM]	-2.1
CCCc1ccc(C(=O)Cn2nc(C(=O)O)c3ccccc3c2=O)cc1	15.0%	2.4%	-1.7	0.5%	/	0.4%[15.4 µM]	9.0
CCOc1ccc(/C=N/NC(=O)C(C)N(c2ccc(OC)cc2)S(C)(=O)=O)cc1 (stereo unspecified)	0.5%	-0.3%[38.3 µM]	1.6	-12.1%	-0.8%	-34.0%	-0.4
O=C(CCc1nc2ccccc2c(=O)[nH]1)N1CCN(S(=O)(=O)c2cc(Cl)ccc2Cl)CC1	/	3.3%	/	?	-1.3%	2.5%	-2.8
CN(C)/C=N/NC(=O)c1ccccc1	1.3%	-0.3%	2.1	6.0%	/	14.2%[15.4 µM]	-11.3
Nc1cc(=O)[nH]c(SCCSc2ccc(F)cc2)n1	10.8%	-1.8%	-1.3	3.5%	/	17.9%	-3.9
Cc1ccc(C)c2[nH]c(=O)c(CCNC(=O)c3cccs3)cc12	6.1%	1.6%	1.0	-17.2%	-20.1%	?	-3.2
CN(C)CC/C=C1/c2cc(F)ccc2Sc2ccc(Cl)cc21	/	0.0%	/	11.5%	/	-5.6%[15.4 µM]	-3.7
NC(=O)NC(=O)COC(=O)/C=C/c1cccs1	11.0%	1.1%	-1.5	-3.7%	-1.6%	13.3%	-6.4
COc1ccc(CC(=O)NNC(=O)c2ccco2)cc1OC	25.7%	-2.4%	1.4	10.1%	/	-61.9%[inhibitor]	-3.4
COc1ccc(CCn2ccc(O)c(Cc3ccc(Cl)cc3Cl)c2=O)cc1OC	3.1%	-1.5%	-1.4	/	/	-4.2%[15.4 µM]	-5.8
O=S(=O)(c1ccccc1)n1nc(-c2ccccc2)nc1NCc1ccco1	?	5.1%	1.4	13.7%	-2.2%	-0.5%	-4.5
O=C(Nc1nccs1)c1cnc2sccn2c1=O	/	0.1%	/	/	-14.7%	?	-1.8
